NPYLR7 agonist: agonists of mosquito NPYLR7 receptor, primary screen, cell-based, Aedes aegypti, calcium fluorescence, mosquito biting behavior; AID 1259423, 2018; activation, % at 10 µM; HEK293T NPYLR7/Galpha15, GCaMP6s calcium fluorescence; 0.15% of 270,000 active; in the data active = activation above about 40%;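 note: 0% = vehicle and 100% = reference agonist at the receptor; some compounds past the cut are filed as inactive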
NPYLR7 agonist max-min: recorded beside NPYLR7 agonist, whose call it bears; activation, %; measured here: Max-Min RFU normalised activation; some inactives read as strong as hits;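 span of the calcium signal over five minutes; 0% = vehicle and 100% = native peptide agonist; compound fluorescence can raise it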
Starred values were filed as active, the others as inactive; & = joins results of further samples. Only part of the results is shown; rates above refer to the full screens.

Below each SMILES: NPYLR7 agonist	NPYLR7 agonist max-min
COC(=O)c1ccc(-c2noc(CN(C)C(C)c3ccncn3)n2)cc1 (configuration not stated)
→ 6	2
COC(C)c1nncn1-c1cccc(C(C)=O)c1 (configuration not stated)
→ 3	12
O[C@@H]1CN(Cc2cccc3nsnc23)CC[C@H]1c1ccc(F)cc1
→ 25	37
Cc1ccc(S(=O)(=O)Nc2cc(C(C)C)[nH]n2)cc1
→ -8	-8
O=C(COc1coc(CN2CCc3ccccc3C2)cc1=O)NCc1ccccc1
→ -2	-3
CC(C)COc1nc(-c2ccccc2F)n(-c2ccc(NC(=O)C(C)(C)CCl)cc2)n1
→ -10	-13
COc1cccc(-n2c(=O)[nH]c3sc4c(c3c2=O)CCN(C(=O)C2CCCC2)C4)c1
→ 5	2
O=C(NCC1CCS(=O)(=O)C1)NCC(O)c1ccc(F)c(F)c1 (configuration not stated)
→ -1	-7
CCCNC(=S)N1CCc2cc(OC)c(OC)cc2C1CNC(=O)c1cccc(F)c1 (configuration not stated)
→ 12	10
COC(=O)c1sc(N2C(=O)C(O)=C(C(=O)c3ccc(C)o3)C2c2cc(OC)ccc2OC)nc1C (configuration not stated)
→ 0	17
CCC(C)Sc1nc2c([nH]c3ccccc32)c(=O)n1C (configuration not stated)
→ 1	13
CN(C)S(=O)(=O)N1CCC(Oc2ccc(C(=O)NC3CCc4ccccc43)cc2)CC1 (configuration not stated)
→ 8	0
COc1ccc(CC(=O)Nc2cc(C)nn2-c2nc3ccc(OC)cc3s2)cc1
→ -8	-15
COC(C(=O)N1CCN(Cc2cccc(-c3noc(C4CCCC4)n3)c2)CC1)c1ccccc1 (configuration not stated)
→ 1	-1
O=C(Nc1ccncc1)c1cc(Cl)c2c(c1)OCCO2
→ 2	1

Compound profiles (already shown). Order of values: NPYLR7 agonist | NPYLR7 agonist max-min
Entry for CCC(C)Sc1nc2c([nH]c3ccccc32)c(=O)n1C (configuration not stated) = 1 | 13
Entry for Cc1ccc(S(=O)(=O)Nc2cc(C(C)C)[nH]n2)cc1 = -8 | -8
Entry for CC(C)COc1nc(-c2ccccc2F)n(-c2ccc(NC(=O)C(C)(C)CCl)cc2)n1 = -10 | -13
Entry for COc1cccc(-n2c(=O)[nH]c3sc4c(c3c2=O)CCN(C(=O)C2CCCC2)C4)c1 = 5 | 2
Entry for O[C@@H]1CN(Cc2cccc3nsnc23)CC[C@H]1c1ccc(F)cc1 = 25 | 37

The main list resumes, repeating the two entries before the break.
Below each SMILES: NPYLR7 agonist	NPYLR7 agonist max-min
COC(C(=O)N1CCN(Cc2cccc(-c3noc(C4CCCC4)n3)c2)CC1)c1ccccc1 (configuration not stated)
→ 1	-1
O=C(Nc1ccncc1)c1cc(Cl)c2c(c1)OCCO2
→ 2	1
CC(C)c1cncnc1NCc1cccnc1Oc1ccc(F)c(F)c1
→ -2	-3
Cn1nc(C(=O)NCc2ccc(F)cc2)c2c1CCC(NC1CCN(Cc3ccccc3)CC1)C2 (configuration not stated)
→ -1	-5
O=C(NCc1cc(-c2ccccc2)no1)N1CCCC(C(F)(F)F)C1 (configuration not stated)
→ 10	7
CCOC(=O)C1CCCN(CN2C(=S)SC3=NC(=O)CCCN32)C1 (configuration not stated)
→ 0	-1
Cc1nc(-c2cccs2)sc1C(=O)N(C)C(C)c1ccccc1 (configuration not stated)
→ 4	2
NC(=O)C(NNC(=O)C1CCCCC1)c1ccccc1 (configuration not stated)
→ 3	2
O=c1cc(N2CCN(Cc3cc4n(n3)CCNC4)CC2)cn[nH]1
→ 4	-2
CC(C)CN(Cc1ccc(C(N)=O)cc1)CC(O)c1ccccc1 (configuration not stated)
→ 12	8
COc1ccccc1NC(=O)C1Cc2ccccc2CN1S(=O)(=O)c1cccs1 (configuration not stated)
→ 7	6
CC(C)(C)c1ccc(C(=O)c2cc[nH]c2)cc1
→ 11	17
O=C1c2ccccc2C(=O)N1CCS(=O)(=O)Cl
→ 0	11
COc1cccc(C2NC(=O)N(C)C3=C2C(=O)N(CC(=O)N2CC(C)OC(C)C2)C3)c1OC (configuration not stated)
→ 0	8
CN(Cc1ccccc1F)C(=O)c1cc(Cl)ccc1O
→ 8	5
CC(C)(C)n1nc2c(c1NC(=O)c1ccc3ccccc3c1)CSC2
→ -5	-6
O=c1nc(SCc2ccc(Br)cc2)c2c(n1CC1CCCO1)CCCC2 (configuration not stated)
→ -9	-12

Reformatted with tabs: part of the list above
canonical_smiles	NPYLR7 agonist	NPYLR7 agonist max-min
Cc1nc(-c2cccs2)sc1C(=O)N(C)C(C)c1ccccc1 (configuration not stated)	4	2
O=C1c2ccccc2C(=O)N1CCS(=O)(=O)Cl	0	11

(listing goes on)
Below each SMILES: NPYLR7 agonist	NPYLR7 agonist max-min
CCCCSc1nnc(C)c2cnn(-c3ccccc3OC)c12
→ -13	-18
O=C(COc1coc(CN2CCN(Cc3ccccc3)CC2)cc1=O)NCc1ccccc1
→ 0	0
CCCC(C)(C)C(=O)N1CCC1(C)C(=O)NS(=O)(=O)c1cccc(C#N)c1 (configuration not stated)
→ -4	-9
O=C(CCc1ncc(-c2ccccc2)o1)N1CCN(S(=O)(=O)c2cc(F)ccc2F)CC1
→ 0	3
COc1ccc(CC2CN(Cc3cccc(C)n3)CCO2)cc1 (configuration not stated)
→ 18	8
O=S(NC12CC3CC(CC(C3)C1)C2)c1ccc2ccccc2c1 (configuration not stated)
→ 9	4
CCn1c(SCc2ccc(I)cc2)nnc1-c1cc(-c2ccccc2)nc2ccccc12
→ 0	10
CC1C(=O)N(c2ccc(F)cc2F)CCN1C(=O)c1ccc(C(F)(F)F)cc1 (configuration not stated)
→ 0	11
Cc1cc(Cl)ccc1C(=O)NCc1cncn1CC(C)C
→ -1	-2
Cc1ccc(/C=C(/Cl)c2cc(=O)n3ccccc3n2)cc1
→ 4	3
COc1ccc(C(=O)C(Cn2cncn2)C(Sc2ccccc2)c2ccccc2)cc1 (configuration not stated)
→ -2	-4
COc1ccc(CCN(Cc2cccs2)C(=O)CN(C(=O)C2C[C@H]2c2ccccc2)C2CC2)cc1OC (some centres not stated)
→ 17	28
CCOC(=O)C1(CCOc2ccccc2)CCCN(Cc2cccc(C)n2)C1 (configuration not stated)
→ 4	-1
COc1ccc(C(=O)NCCc2nnc3ccc(SCC(=O)NC4CCCCC4)nn23)cc1
→ 7	-8
O=C(CC1SC(N2CCCCC2)=NC1=O)Nc1cccc(C(=O)NC2CCc3ccccc32)c1 (configuration not stated)
→ -2	-1
CN(C)CCNC(=O)c1cc(-c2ccccc2)nc2cc(-c3ccccc3)nn12
→ -10	-2
Fc1ccc(Cc2nc(CSc3nc4ccc(Cl)cc4o3)cs2)c(Cl)c1
→ 2	-4
Cc1nc2cc(NC(=O)c3ccccc3-c3ccc(C(F)(F)F)cc3)ccc2s1
→ -8	-12
CCOC(=O)c1c(C)n(OCc2ccccc2)c2ccc3c(no[n+]3[O-])c12
→ 1	0
Cc1cccc2sc(N(Cc3ccccc3)C(=O)c3ccc([N+](=O)[O-])o3)nc12
→ 0	-6
Cc1cccn2c(NC(C)(C)C)c(-c3cccc(F)c3)nc12
→ -1&-1	4&-1
Cn1c(Nc2nc(-c3ccccc3)c3cc(Br)ccc3n2)nc2ccccc21
→ -6	-7
CC1CN(C(c2ccc(Cl)cc2)C2Sc3nc(-c4ccco4)nn3C2=O)CC(C)O1 (configuration not stated)
→ -2	-3
CC(C)(C)n1nc2c(c1NC(=O)c1cc(Cl)ccc1Cl)CSC2
→ -3	-4
Cc1[nH]n(-c2nc(-c3ccc(Cl)cc3)cs2)c(=O)c1N=Nc1ccc(I)cc1
→ -9	-11
c1ccc2sc(SCc3csc(Cc4ccc5c(c4)OCO5)n3)nc2c1
→ 1	2
Cc1cc(C)nc(-n2nc(C)c3c2CCCC3=O)n1
→ -5	4
CCCNc1nc2ccccn2c(=O)c1C=C1SC(=S)N(C2CCCCC2)C1=O
→ -6	-7
COc1cc(CN(C)C(=O)c2c(C)noc2-c2ccccc2C)cc(OC)c1OC
→ 1	-4
CSc1cccc(NC(=O)c2cccnc2NC(C)C)c1
→ -3	-6
Cn1nnnc1SCc1cc2c(cc1Br)OCO2
→ 0	-4
Cc1[nH]c2ccccc2c1CC(=O)NCc1nc(-c2cccnc2)no1
→ 1	1
COCCNC(=O)CN(Cc1ccccc1)C(=O)c1ccoc1
→ 6	5
CN1CCN(c2ccc(CNC(=O)c3ccc(-c4ccnn4C)c4ccoc34)cc2)CC1
→ -15	-15
COCCn1c(SCC(=O)Nc2cc(C)ccc2C)nc2c(c1=O)SC(C)C2 (configuration not stated)
→ 4	0
CN(C)CCCN1C(=O)C(O)=C(C(=O)c2ccco2)C1c1ccco1 (configuration not stated)
→ 8	9
CC1(C(=O)Nc2ccc3c(c2)OCO3)CCN1CCOc1ccccc1 (configuration not stated)
→ -2	-3
COc1cc(CN2CCN(C(C)=O)CC2)c(O)c(C(C)(C)C)c1
→ 4	4
O=C(Nc1ccc(SCc2cccnc2)nn1)c1ccccc1
→ -2	0
COCc1cc(C)nc(OCC(=O)N/N=C\c2cc(C)n(-c3ccc(I)cc3)c2C)c1C#N
→ 3	18
N#CC(c1cccs1)N1CCN(C(=O)CCl)CC1 (configuration not stated)
→ 1	-2
O=C(NCc1cnn(-c2ccccc2)c1)c1cccc2ccnn12
→ 0	0
CCC1CCCCN1C(=O)c1nn2c(C(F)(F)F)cc(-c3cccs3)nc2c1Cl (configuration not stated)
→ -15	-21
CCc1[nH]c2c(CNC(=O)c3cnn(C)c3)cc(F)cc2c1C
→ 8	4
CCOC(=O)C1=C(C)OC(=N)C(C#N)C1c1ccc(O)cc1 (configuration not stated)
→ -3	-5
COc1ccccc1C(C)NCc1csc(-c2ccsc2)n1 (configuration not stated)
→ 6	4
COCC(O)CN(C)C(C)C(=O)Nc1ccc(Cl)c(C(F)(F)F)c1 (configuration not stated)
→ 1	-1
CCS(=O)(=O)Oc1ccc(CN(CC(C)C)C(=O)C(c2ccccc2)c2ccccc2)cc1
→ -5	7
CC(C(N)=O)N1CCCN(C(=O)c2cccc(F)c2)CC1 (configuration not stated)
→ 8	5
COCCN(C)CC(=O)N1CCn2c(C(N)=O)cnc2C1
→ 1	0
CCn1c(=O)c(C(=O)N2CCOCC2)nn(-c2ccc(C)c(Cl)c2)c1=O
→ 11	18
O=C(CCSc1ccc(Cl)cc1)Nc1ccc(F)c(F)c1F
→ -1	-5
COc1cccc(C2c3[nH]c4ccccc4c3CCN2Cc2cccn2-c2ncccn2)c1 (configuration not stated)
→ 0	-4
CN(C)c1ccc(/C=C2\C(=O)NC(=S)N(Cc3ccccc3)C2=O)cc1[N+](=O)[O-]
→ 4	4
CN(C)CCCn1ccnc1-c1ccc(N(C)C)nc1
→ 4	1
O=C(O)C1CC=CCC1C(=O)Nc1ccc2c(c1)OC(F)(F)O2 (configuration not stated)
→ 3	3
O=C(CCl)N1CCc2cc([N+](=O)[O-])ccc21
→ 6	7
Cc1ccn2c(CNCCn3nc(C)cc3C)c(C(=O)N3CCCCCC3)nc2c1
→ 0	5
CC(COC(=O)CCCOc1ccc2c(c1)CCC(=O)N2)NC(=O)OC(C)(C)C (configuration not stated)
→ -4	-8
COc1ccccc1OCCCN1C(=O)C2(CC(=O)N(CCC(F)(F)F)C2=O)c2cc(Cl)ccc21 (configuration not stated)
→ -7	-16

(listing goes on)
Below each SMILES: NPYLR7 agonist	NPYLR7 agonist max-min
CCc1cc(CN2CCC(CNC(=O)c3cccc(O)c3C)C2)on1 (configuration not stated)
→ 11	-2
Cc1ccc(-n2c(CNC(=O)c3cccc(Cl)c3)nnc2SCc2ccccc2C)cc1
→ 9	16
COc1ccc(Br)cc1/C=C/c1nc2sc(C)c(C)c2c(=O)[nH]1
→ 1	0
C=CC(C)(C)S(=O)(=O)c1ccc(C)cc1
→ -4	-7
C#CCn1cnc2c(nnn2-c2cc(C)cc(C)c2)c1=O
→ -5	-9
Cc1nnc(SCC(=O)Nc2ccc(Cl)cc2F)s1
→ -3	-8
Cc1cc(S(=O)(=O)N2CCN(c3c4c(nc5ncnn35)CCCC4)CC2)c(C)cc1Cl
→ 18	11
Cc1cccc(CNC(=O)Nc2ccc3c(c2)n(C)c(=O)n3C)c1
→ 10	6
[O-][n+]1c2ccc3nonc3c2nn1-c1cc(Cl)cc(Cl)c1
→ 4	3
Cc1ccc(C2(C)NC(=O)N(CC(=O)NC3CCCCCCC3)C2=O)cc1 (configuration not stated)
→ 6	0
CCN(CCn1cccn1)C(=O)c1cc(COc2cccc3cccnc23)on1
→ 2	7
O=C1CN(C(=O)COC(=O)C2(c3ccc(Cl)cc3Cl)CCOCC2)CCN1
→ 6	3
COc1ccc(C(=O)N2CC(C)(C)SC23C(=O)Nc2ccc(OC)cc23)cc1 (configuration not stated)
→ 3	7
CCn1c(CC2CCN(S(=O)(=O)c3cccs3)CC2)nn(C)c1=O
→ 4	-1
COc1ccc(N2CCN(C(=O)C3CC3)C(C)C2=O)cc1OC (configuration not stated)
→ -8	-2
Cc1ccncc1C(=O)NC1CC(=O)N(CCc2ccc(F)cc2)C1 (configuration not stated)
→ -3	-3
Cc1ncc(CC(=O)N2CCc3[nH]nc(-c4ccccc4F)c3C2)c(=O)[nH]1
→ 27	21
COc1ccc2c(c1)C(NC(=O)c1cccnc1)CC(C)(C)O2 (configuration not stated)
→ 1	1
Cc1cnc(CNC(=O)c2cnn(C(C)C)c2)cn1
→ 23	17
CCc1nc(SCC(=O)NCc2snnc2C(C)C)n[nH]1
→ 25	16
O=C1c2ccccc2C(O)(c2ccccc2)N1Cc1ccccc1Cl (configuration not stated)
→ -5	-6
C=CCNC(=O)COc1cccc2c(=O)n(CCOC)ccc12
→ 0	16
COc1cccc(CC2CN(C(=O)Nc3cccs3)CCO2)c1 (configuration not stated)
→ -7	4
COc1ccc(S(=O)(=O)Nc2ccc(N(C)C)c(CN(Cc3ccco3)C(=O)c3cccc(F)c3)c2)cc1
→ 11	7

Bioassay records (PubChem)
